High-throughput results: PubChem BioAssay, National Center for Advancing Translational Sciences (NCATS)
RE007 growth inh – less growth of the S. pombe RE007 Vpr strain; S. pombe RE007 Vpr strain, BacTiter-Glo ATP luminescence, 24 h; control for the full effect not named in the record; Potency, µM (series often up to 92.2 µM), for the others: at the highest dose activity change, negative = less growth; hit rate 0.21% among 360,000; active = well fitted falling curve with a large enough effect; inconclusive = small, poorly fitted or top-dose-only effect; inactive = no such curve, though single readings can be large or run the other way;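 also: % is scaled to controls: 0 for no effect and ±100 for the full control effect; nearly all actives have a fitted effect of over 50% in size; the assay follows cell death caused by Vpr and the record does not say whether a fall means rescue or toxicity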
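Fission yeast strain RE007, carrying one chromosomally integrated HIV-1 vpr copy, was seeded at OD 0.01 in PMG+AL medium with 23 nL pinned compound. After 24 h at 30 °C and 99% humidity, viability was read by BacTiter-Glo luminescence.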
SARS PLP yeast – SARS-CoV PLP inhibition in yeast. Potency, µM (series often up to 32.9 µM), inactives show at the top dose activity, positive = growth rescue. AID 485353. hit rate 0.19% among 330,000. S. cerevisiae expressing SARS-CoV PLpro, growth rescue; control for the full effect not named in the record; also: 0% is about no effect; nearly all actives have a fitted effect of over 55% in size; growth read by luminescence after 48 h
StopGo reporter – lowers the luciferase signal of an FMDV 2A StopGo reporter. human cells with a luciferase reporter of 2A StopGo recoding; control for the full effect not named in the record. Potency, µM (doses to about 57.9 µM), for the others: at the top dose signal change, negative = less light. hit rate 1.2% among 410,000; active = well fitted falling curve with a large enough effect; inconclusive = small, poorly fitted or top-dose-only effect; inactive = no such curve, though single readings can be large or run the other way; tested in HEK293T cells; also: % is scaled to controls: 0 for no effect and ±100 for the full control effect; nearly all actives have a fitted effect of over 45% in size; luciferase light after 4 h
Cruzain Triton – cruzain (T. cruzi) inhibition with detergent; hit rate 0.43% among 200,000; Potency, µM, for the others: max response, negative = inhibition, actives largely listed as inhibitors; purified cruzain, Z-FR-AMC fluorescence, 0.01% Triton; active = well fitted curve in the direction sought with a large enough effect; inconclusive = small, poorly fitted or top-dose-only effect, or another doubt; inactive = no such curve, though single readings can be large; an effect the other way counts as inactive or inconclusive;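 also: plate controls were neutral wells for no effect and buffer without enzyme for full effect; nearly all actives have a fitted effect of over 40% in size; top concentration of the series not given in the record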
Target sequence (P25779 123-467 limits assumed): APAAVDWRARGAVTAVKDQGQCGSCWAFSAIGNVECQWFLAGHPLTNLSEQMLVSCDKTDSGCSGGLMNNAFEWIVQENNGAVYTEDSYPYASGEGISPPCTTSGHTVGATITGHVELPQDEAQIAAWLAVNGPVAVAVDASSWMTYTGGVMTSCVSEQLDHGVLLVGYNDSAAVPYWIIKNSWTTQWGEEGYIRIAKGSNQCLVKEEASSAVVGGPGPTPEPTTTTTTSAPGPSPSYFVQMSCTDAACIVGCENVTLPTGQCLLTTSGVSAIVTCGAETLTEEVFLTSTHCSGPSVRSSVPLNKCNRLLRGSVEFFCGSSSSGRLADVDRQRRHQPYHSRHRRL
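Read-out: AMC fluorescence (360 nm excitation, 450 nm emission), four reads over 2 min, first-to-third difference used. Conditions: cruzain 1.5 nM, Z-FR-AMC 2 uM, pH 5.5 acetate, 5 mM DTT, 0.01% Triton X-100.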
NS1 function inh – inhibitors of influenza NS1 protein function. S. cerevisiae slowed by influenza A NS1, growth recovery by OD600. Potency, µM (series often up to 46.1 µM), for inactives: at the highest dose activity, positive = more growth. hit rate 0.4% among 270,000. AID 2326; also: actives are rising curves; nearly all actives have a fitted effect of over 50% in size
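Read-out: OD600 growth recovery of NS1-expressing budding yeast. Cells grown overnight at 30C in -URA glucose medium, washed, resuspended and diluted 1:100 in 2% galactose assay medium, pH 6.0. Same strain lacking NS1 served as positive control.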
Marburg entry inh – blocks Marburg virus binding to or entry into cells | Marburg virus pseudotyped entry inhibition, cell reporter; control for the full effect not named in the record; about a third of the inactives were read at about 46 µM | Potency, µM (series often up to 37.8 µM), inactives show top-dose activity change, negative = inhibition, actives largely listed as inhibitors | hit rate 1.8% among 300,000 | AID 540276; active = well fitted inhibition curve with a large enough effect; inconclusive = small, poorly fitted or top-dose-only effect, or effect the other way; inactive = flat fitted curve, though single readings scatter; tested in HEK293 cells; about a fifth of its hits are not listed in these tables; also: % is scaled to controls: 0 for no effect and ±100 for the full control effect; luciferase read-out
Cruzain noTriton – blocks cruzain activity in detergent-free assay; P25779; purified cruzain, Z-FR-AMC fluorescence, no detergent; Potency, µM, for the others: max response, negative = inhibition, hits mostly inhibitors; hit rate 2.3% among 200,000; AID 1476; active = well fitted curve in the direction sought with a large enough effect; inconclusive = small, poorly fitted or top-dose-only effect, or another doubt; inactive = no such curve, though single readings can be large; an effect the other way counts as inactive or inconclusive;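 also: plate controls were enzyme without inhibitor for no effect and buffer without enzyme for full effect; nearly all actives have a fitted effect of over 40% in size; top concentration of the series not given in the record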
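Purified cruzain at 1.5 nM, pre-incubated 15 min with compound at room temperature in 100 mM sodium acetate pH 5.5, 5 mM DTT, 0.00005% Triton X-100. Reaction started with 2 uM Z-FR-AMC; AMC fluorescence increase over 60 s gives rate.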
Lassa entry inh – inhibitors of Lassa virus binding or cell entry; Lassa virus pseudotype entry inhibition, cell reporter; control for the full effect not named in the record; Potency, µM (highest dose often 37.9 µM), for the others: top-dose activity change, negative = inhibition, hits mostly inhibitors; hit rate 1.2% among 300,000; active means well fitted inhibition curve with a large enough effect; inconclusive means small, poorly fitted or top-dose-only effect, or effect the other way; inactive means flat fitted curve, though single readings scatter; tested in HEK293 cells; also: % is scaled to controls: 0 for no effect and ±100 for the full control effect; nearly all actives have a fitted effect of over 50% in size; luciferase read-out
* marks the source's active call; other numbers are inactive results; u = inconclusive; x = no result given; & = joins results of further samples; [ ] = remark or other dose. Unless noted, calls follow the shape of the dose curve; as a rule, active means well fitted rising curve with a large enough effect; inconclusive means small, poorly fitted or top-dose-only effect; inactive means no such curve, though single readings can be large or run the other way. Potency is read from the fitted curve at half-maximal effect.

Structure | RE007 growth inh | SARS PLP yeast | StopGo reporter | Cruzain Triton | NS1 function inh | Marburg entry inh | Cruzain noTriton | Lassa entry inh
CC(/C=C1\SC(=S)N(NS(=O)(=O)c2ccccc2)C1=O)=C\c1ccccc1 | u | -3.7% | -14.1% | x | -31.0% | 7.3%[46.1 µM] | x | 5.5%
Cc1ccc(-n2c(CCc3nc4ccccc4[nH]3)n[nH]c2=S)cc1 | -4.2% | 0.4% | -13.3% | x | 0.3% | -1.7% | x | 6.4%
CCN(CC(=O)NCc1ccncc1)S(=O)(=O)c1ccccc1 | -8.9% | 0.8% | -7.5% | x | -6.9% | -7.0%[46.1 µM] | x | 5.3%
[O-]/[N+](=C/c1ccco1)c1ccccc1 | -8.7% | -0.8% | 26.2% | x | -26.8% | x | x | x
COc1cc(OC)cc(C(=O)Nc2nc(-c3nnn(-c4ccc(C)cc4)c3C)ns2)c1 | x | x | u | -2.1% | x | x | -3.8% | -3.5%[46.1 µM]
COc1ccc(NCN2C(=O)C3C4C=CC(C4)C3C2=O)cc1 (stereo not given) | -5.5% | -0.9% | -10.3% | x | 0.9% | u | x | -16.2%
O=C(O)C1CCCN1C(=O)c1cccs1 (stereo not given) | 4.0% | 2.2% | -0.2% | 0.5% | 1.7% | -15.6% | 12.9% | -1.5%
O=C(CN1CCC(n2nnc3cc(C(F)(F)F)ccc32)CC1)NNC(=O)c1ccco1 | -5.0% | -0.1% | -26.8% | x | 4.7% | x | x | x
O=C(Nc1ccccc1)OCCNC(=O)c1cccc(Br)c1 | 8.8% | -0.6% | -24.7% | x | -8.9% | -5.1%[46.1 µM] | x | -14.2%[46.1 µM]
Oc1ccc(CCNc2c3ccccc3nc3ccccc23)cc1O | 2.2% | -8.8% | -15.1% | x | -64.2% | 10µM* | x | u
COc1ccc(-c2cnc(N)n2CC2CCCO2)cc1 (stereo not given) | -4.9% | 2.5% | 14.4% | 5.5% | -4.2% | 4.6% | 15.4% | u
COc1cc(OC)c(NC(=O)Cn2nc(C)n3cccc3c2=O)cc1Cl | x | x | -10.2% | -27.2% | x | -22.0%[46.1 µM] | -4.2% | -2.0%[46.1 µM]
COC1C(CO)OC(n2cnc3c(=S)nc(N)[nH]c32)C1O (stereo not given) | -5.1% | x | -18.1% | x | x | 21.0% | x | u
Cc1nn(C2CCS(=O)(=O)C2)c(Cl)c1/C=C/C(=O)OCC(=O)c1c[nH]c2ccccc12 (stereo not given) | -3.3% | 10.8% | u | -3.6% | u | u | -9.3% | -15.0%
CN(C)c1cc(-c2ccc(F)cc2)oc(=O)c1Cl | 7.4% | -0.6% | 4.5% | x | 1.7% | u | x | u
CCOc1cc(C2C3=C(CCCC3=O)Nc3nc(C(=O)OC)nn32)ccc1OC (stereo not given) | -0.2% | -2.5% | 30.0% | 3.9% | 7.9% | 7.1% | -8.2% | 3.1%
Cc1ccc(S(=O)(=O)Cc2ccc([N+](=O)[O-])cc2)cc1 | 5.9% | -7.1% | -2.6% | x | 17.9% | -14.3% | x | -16.8%
COc1cccc(CN2CCN(C(=O)CCc3nnc(C4CCCCC4)o3)CC2=O)c1 | 2.3% | 1.2% | 11.0% | x | -3.8% | x | x | x
COc1ccc(-c2nnc(C3CCN(S(=O)(=O)c4cccc(Cl)c4)CC3)o2)cc1 | x | x | -22.3% | -5.2% | x | -1.8%[46.1 µM] | 14.5% | 11.9%[46.1 µM]
COc1cc2c(cc1OC)C(COc1ccccc1OC)N(C(=O)c1ccc(S(=O)(=O)N3CCCC3)cc1)CC2 (stereo not given) | x | x | -16.3% | -1.1% | x | x | u | u
CC(C)(C)OC(=O)N1CCC(c2c(C(=O)Nc3cccc(C(F)(F)F)c3)cnn2-c2ccc(F)cc2F)CC1 | x | x | -14.6% | -8.9% | x | x | -4.3% | -15.2%[46.1 µM]
Cc1onc(-c2ccccc2Cl)c1C(=O)Nc1ccccc1C(=O)NC(C)C | 6.2% | -5.7% | x | -1.9% | -20.4% | 9.2µM* | u | u
Cc1cccc(NS(=O)(=O)c2ccc(-c3cnc(C4CC4)o3)cc2)c1 | -3.0% | -7.1% | 1.6% | x | -5.7% | x | x | x
COc1cccc(/C=C/c2onc(C)c2S(=O)(=O)N2CCC(C(=O)NC3CCCCCC3)CC2)c1 | -10.6% | -1.8% | -20.6% | x | 10.2% | x | x | x
O=C1NC(=O)C2(C=C(c3ccccc3)C(O)(c3ccccc3)C2)N1 (stereo not given) | -13.3% | x | -9.2% | x | x | u | x | 8.5%[46.1 µM]
COC(=O)c1ccc(N2C(=O)CC(N3CCN(c4ccccc4)CC3)C2=O)cc1 (stereo not given) | u | x | -16.0% | x | x | 0.9% | x | -0.6%
Cc1cc(C)n2nc(SCCCC(=O)c3ccccc3)nc2n1 | 5.3% | 0.7% | 22.3% | x | 3.4% | 4.7%[46.1 µM] | x | x
COC(=O)c1ccc(CSc2nnc(NC(=O)C3CC(=O)N(Cc4ccc(C)cc4)C3)s2)cc1 (stereo not given) | 12.2% | 3.9% | u | -6.5% | u | 2.3% | u | 10.2%
COc1ccc(C(CC(=O)O)NC(=O)OC(C)(C)C)cc1 (stereo not given) | -14.9% | 9.7% | -5.7% | 1.2% | -1.5% | 6.5% | 3.3% | 2.2%
Cn1c(-c2ccc(F)cc2)cnc1SCC(=O)Nc1ccccc1 | 4.3% | -0.8% | -17.5% | x | -8.7% | -0.7%[46.1 µM] | x | 0.9%

Individual results from the list:
RE007 growth inh result of `[O-]/[N+](=C/c1ccco1)c1ccccc1` is entered as -8.7%
Cruzain noTriton result of `CC(C)(C)OC(=O)N1CCC(c2c(C(=O)Nc3cccc(C(F)(F)F)c3)cnn2-c2ccc(F)cc2F)CC1` is entered as -4.3%
Cruzain noTriton result of `COc1cc(OC)cc(C(=O)Nc2nc(-c3nnn(-c4ccc(C)cc4)c3C)ns2)c1` is entered as -3.8%
StopGo reporter result of `COC(=O)c1ccc(N2C(=O)CC(N3CCN(c4ccccc4)CC3)C2=O)cc1` (stereo not given) is entered as -16.0%
NS1 function inh result of `COc1cccc(CN2CCN(C(=O)CCc3nnc(C4CCCCC4)o3)CC2=O)c1` is entered as -3.8%
StopGo reporter result of `COc1ccc(C(CC(=O)O)NC(=O)OC(C)(C)C)cc1` (stereo not given) is entered as -5.7%

(listing goes on)
Structure | RE007 growth inh | SARS PLP yeast | StopGo reporter | Cruzain Triton | NS1 function inh | Marburg entry inh | Cruzain noTriton | Lassa entry inh
Cc1[nH]n(-c2ccccc2)c(=O)c1N=Nc1ccccc1O | 5.8% | -3.6% | 5.2% | x | -3.0% | u | x | u
Cc1cccc(NS(=O)(=O)c2ccc(NC(=O)N3CCCC3)cc2)c1 | x | x | -13.0% | 0.7% | x | x | -8.5% | u
Cc1ccc(NC(=O)c2cc(C)nn2-c2ccccc2)cc1 | -6.6% | -4.7% | 14.7%&11.0% | -4.1%&-1.0% | 0.1% | u | -4.3%&-8.3% | 8.0%[46.1 µM]
Cc1cc(C)[n+](Cc2ccccc2)cc1C(N)=O | 0.9% | x | 4.7% | x | x | 25.2%[46.1 µM] | x | u
Cc1ccccc1OC(=O)CSc1nnc(-c2ccc(F)cc2)o1 | x | x | -24.7% | -3.1% | x | 17.2%[46.1 µM] | -4.8% | 6.3%[46.1 µM]
COc1cccc(/C=N/NC(=O)CC2C(=O)NN=C2C)c1OC (stereo not given) | 2.9% | -3.3% | 4.9% | -10.2% | 13.5% | 24.9% | -0.1% | 11.3%
Cc1ccc(C(=O)Nc2sc3c(c2C(=O)O)CCCC3)o1 | -17.3% | -7.3% | 21.9% | x | -53.2% | x | x | x
COc1ccccc1C(CC(=O)Nc1ccc(C)c(C)c1)c1ccc(OC(C)C)cc1 (stereo not given) | -7.3% | -14.5% | -28.4% | -3.5% | -5.9% | u | -18.0% | -5.7%
COC(=O)COc1ccc(S(=O)(=O)N2CCc3ccccc3C2)cc1 | -2.4% | 1.5% | x | -1.8% | -11.6% | -1.8% | 10.2% | u
Cn1c(=O)c2c(n(C)c1=O)=NC1(CCCCC1)ON=2 | 16.6% | 3.3% | -7.0% | 2.2% | -11.5% | 19.9% | -2.9% | -4.2%
Cc1nc2ncnn2c(Nc2ccc3c(c2)OCCO3)c1C | -3.0% | x | u | x | 3.4% | -14.2% | x | -20.5%
COc1ccccc1N1CCN(C2CCCN(C(=O)c3ccccn3)C2)CC1 (stereo not given) | 4.8% | 6.8% | -12.2% | x | 7.2% | x | x | x
COc1cc(-c2cc(C(=O)N(C)Cc3ccccc3)c3ccccc3n2)cc(OC)c1OC | 7.6% | 0.0% | 8.5% | x | 0.7% | u | x | u
CCOc1ccc(OCC)c(NC(=O)c2cnn(-c3ccc(F)cc3)c2C2CCN(C(=O)OC(C)(C)C)CC2)c1 | x | x | u | -1.5% | x | x | -9.8% | u
CCOc1nc(SC(C(C)=O)C(=O)Nc2ccccc2)nc(N(C)C)n1 (stereo not given) | -11.5% | 0.4% | 25.4% | -9.3% | 2.6% | 1.1% | -1.8% | 10.1%
O=S(=O)(NCC1CCCO1)c1ccccc1 (stereo not given) | -11.2% | -2.6% | 7.4% | x | -1.1% | x | x | x
O=C1OC(c2ccccc2)=N/C1=C\C=C\c1ccco1 | -1.3% | -1.3% | -7.0% | x | 2.4% | -6.1%[46.1 µM] | x | 2.8%[46.1 µM]
CC(=O)CN1C(=O)NC2(CCCc3ccccc32)C1=O (stereo not given) | 16.4% | 1.4% | -5.8% | x | 2.6% | -6.9%[46.1 µM] | x | 22.3%[46.1 µM]

Random excerpt: two records from the list.
Structure | RE007 growth inh | SARS PLP yeast | StopGo reporter | Cruzain Triton | NS1 function inh | Marburg entry inh | Cruzain noTriton | Lassa entry inh
COc1ccccc1N1CCN(C2CCCN(C(=O)c3ccccn3)C2)CC1 (stereo not given) | 4.8% | 6.8% | -12.2% | x | 7.2% | x | x | x
Cc1[nH]n(-c2ccccc2)c(=O)c1N=Nc1ccccc1O | 5.8% | -3.6% | 5.2% | x | -3.0% | u | x | u
